HPGD block = HPGD (human) dehydrogenase inhibition. P15428. Potency, µM, inactives show at the highest dose activity change, negative = inhibition, usual class: inhibitors. purified HPGD, NADH fluorescence kinetic, PGE2 substrate. 150,000 tested, 4.3% active; active = well fitted inhibition curve with a large enough effect (not every such curve was filed as active); inconclusive = small, poorly fitted or top-dose-only effect, or another doubt; inactive = no such curve, though single readings can be large or run the other way;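 further: top concentration of the series not given in the record; plate controls included wells without enzyme; inactives centre near -10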
Target sequence (P15428 whole entry, looked up): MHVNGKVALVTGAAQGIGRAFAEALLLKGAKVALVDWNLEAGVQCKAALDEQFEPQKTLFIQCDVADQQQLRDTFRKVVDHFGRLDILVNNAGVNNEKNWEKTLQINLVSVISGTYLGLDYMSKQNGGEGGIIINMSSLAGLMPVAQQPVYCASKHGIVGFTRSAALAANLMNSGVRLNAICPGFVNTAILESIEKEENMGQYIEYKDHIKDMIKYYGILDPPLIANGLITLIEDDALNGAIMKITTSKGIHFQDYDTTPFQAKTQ
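NADH formation kinetics: reaction with 30 uM PGE2 and 1 mM NAD+ (final), 20 nM enzyme, Tris-HCl pH 8 with Tween 20, after 15 min compound preincubation at room temperature. Fluorescence change, last versus first of five reads.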
The depositor's hits bear a star; ? = inconclusive; & = joins results of further samples. On the % scale 0 is the no-effect control and ±100 the full control effect; potency means the concentration at half of the fitted maximal effect.

SMILES	HPGD block
CCc1ccc(C2=C/C(=C/c3cccnc3)C(=O)O2)cc1	-23%
Cc1ccnn1CC(=O)N/N=C/c1ccco1	-14%
Cc1nnc(NC(=O)c2ccc(Br)cc2)s1	-9%
CC(C)Oc1ccc(CSC(=N)N)cc1	6%
O=C(Nc1cccc2c1CCCC2)c1cc([N+](=O)[O-])cc([N+](=O)[O-])c1	-8%
CCOC(=O)c1oc2cc(O)ccc2c(=O)c1-c1ccc(OC)cc1	-6%
CCCC(=O)Nc1nnc(CCN2CCCCC2)s1	-9%
Nc1nnc(CC(=O)N2CCCCC2)s1	-7%
COC(=O)c1sccc1N/N=C(\C)c1ccc(F)c(Cl)c1	?
CCOc1ccc(CCNC(=O)CSc2cc(=O)n(C)c3ccccc23)cc1OCC	-11%
CCC1Oc2ccc(C)cc2N(CC(=O)NCCN2C(C)CCCC2C)C1=O (configuration not stated)	-3%
CN(C)S(=O)(=O)c1ccc(/C(O)=C2/C(=O)C(=O)N(Cc3cccnc3)C2c2ccncc2)cc1 (configuration not stated)	-13%
CCOC(=O)c1[nH]c(C)c(C(=O)NCc2ccccn2)c1C	-7%
CC(C)n1cc(/C=C(\C#N)S(=O)(=O)c2ccccc2)c2ccccc21	-23%
O=C(O)CCCC(=O)Nc1ccc(Br)cc1	-4%
CC/C(=C\C1CCCCC1)C(NP(=O)(c1ccccc1)c1ccccc1)c1ccccc1 (configuration not stated)	-7%
COc1ccc(CC(C(=O)Nc2cccc(F)c2)c2nn[nH]n2)c(OC)c1 (configuration not stated)	-3%
Nn1c(-c2ccccc2Cl)nnc1-c1ccccc1Cl	-27%
Fc1ccc(-c2cc3nc(-c4ccccc4)cc(N4CCN(CCN5CCOCC5)CC4)n3n2)cc1	?
COc1cccc(C2c3c(oc4ccccc4c3=O)C(=O)N2CCCN(C)C)c1OC (configuration not stated)	?
O=C(CCNS(=O)(=O)c1ccc2c(c1)CCC(=O)N2)NCc1cccnc1	-9%
CCN(CC)S(=O)(=O)c1cccc(C(=O)Nc2ccc(C#N)cc2)c1	-7%
Cc1ccc(C(=O)Cn2c(N3CCOCC3)nc3c2c(=O)n(C)c(=O)n3C)cc1	4%
CCOC(=O)C1=C(C)C2C3C(=O)N(c4ccccc4C)C(=O)C3C1(C)C1C(=O)N(c3ccccc3C)C(=O)C21 (configuration not stated)	2%
Cc1cc(-c2nc3ccccc3o2)c2ccccc2n1	?

Next section:
SMILES	HPGD block
c1ccc2c(CN3CCOCC3)c3ccccc3c(CN3CCOCC3)c2c1	-6%
CC(=O)C1=NOC(CNC(=O)c2c(-c3ccccc3Cl)noc2C)C1 (configuration not stated)	-2%
CN(C)c1ccc(/C=N/NC(=S)NCc2ccco2)cc1	?
CCOC(=O)c1[nH]c2ccc(OC)cc2c1NC(=O)CN1CCC2(CC1)OCCO2	?
COc1cccc(NC(=O)COc2ccccc2C(N)=O)c1	-4%
O=c1c(C(c2ccc(O)cc2)c2c(O)nc3n(c2=O)CCS3)c(O)nc2n1CCS2	13µM*
Cc1ccnc(NC(=O)COC(=O)C2COc3ccccc3O2)n1 (configuration not stated)	?
OC(Cc1ccccc1)(Cc1ccccc1)c1ccccc1	-11%
CC(=O)c1c(C)nc2ccc(Cl)cn12	-4%
CCC(=O)N1CCc2cc(S(=O)(=O)CCC(=O)Nc3ccc(F)c(F)c3)ccc21	-9%
CC(C)(C)C(=O)NC(c1ccc(Cl)cc1)[C@]1(C)C[C@H]1C1CCCCC1 (some centres not stated)	-15%
CCC(c1nc2ccccc2c(=O)n1CCCn1ccnc1)N1C(=O)c2ccccc2C1=O (configuration not stated)	-13%
CCC(C)NC(=O)CSc1nc(-c2cccs2)cc(C(F)(F)F)n1 (configuration not stated)	?
Cc1ccc(S(=O)(=O)c2cc3cc(Br)ccc3oc2=O)cc1	-13%
O=C1CC(Cc2ccc(Cl)cc2)C(=O)N1c1ccncc1 (configuration not stated)	-7%
O=C1CC(SC(=NCc2ccc3c(c2)OCO3)Nc2ccccc2)C(=O)N1 (configuration not stated)	-2%
CCCn1c(N)c(C(=O)CSc2nnnn2-c2ccc(O)cc2)c(=O)n(C)c1=O	-15%
C=C(C)CSc1nnc(-c2ccc(C)cc2)n1N	-29%
Cc1cccc(Nc2nn3c(=O)c4ccccc4nc3s2)c1	-17%
COc1cc(/C=N/NC(N)=S)ccc1OCc1ccc(C)cc1	-25%
O=C(Nc1nc(-c2ccccc2)cs1)c1cccc([N+](=O)[O-])c1	-19%
CC12CC[C@@H]3c4ccc(OP(=O)(O)O)cc4CCC3C1CCC2=O (some centres not stated)	1%
O=C(NCC1CCCO1)/C(=C\c1ccc(Cl)cc1)NC(=O)c1ccccc1 (configuration not stated)	3%
Cc1ccc(Cn2c(SCCN3CCCCC3)nc3c2c(=O)[nH]c(=O)n3C)cc1	28µM*
Cc1cccc(-n2c(N)c(C(=O)N3CCN(C)CC3)sc2=S)c1	10µM*

Entries listed so far that contain fluorine:
SMILES	HPGD block
COC(=O)c1sccc1N/N=C(\C)c1ccc(F)c(Cl)c1	?
COc1ccc(CC(C(=O)Nc2cccc(F)c2)c2nn[nH]n2)c(OC)c1 (configuration not stated)	-3%
Fc1ccc(-c2cc3nc(-c4ccccc4)cc(N4CCN(CCN5CCOCC5)CC4)n3n2)cc1	?
CCC(=O)N1CCc2cc(S(=O)(=O)CCC(=O)Nc3ccc(F)c(F)c3)ccc21	-9%
CCC(C)NC(=O)CSc1nc(-c2cccs2)cc(C(F)(F)F)n1 (configuration not stated)	?

(cont.)
SMILES	HPGD block
CCCC(=O)N1CC2(C)CN(C(=O)CCC)CC(CCC)(C1)C2=O	-15%
O=C1C2C(C(=O)N1c1ccc3c(c1)OCO3)C1C=CC2C12CC2 (configuration not stated)	-1%
CC1=NN(C(=O)COc2ccccc2C)C(O)(c2ccc(Cl)cc2)C1 (configuration not stated)	-10%
CS(=O)(=O)N(CC(=O)N1CCc2ccccc2C1)c1ccc2c(c1)OCO2	-14%
Cn1c(CCNC(=O)c2cccs2)n[nH]c1=S	-11%
NCCC[C@@H](CC(=O)N[C@@H]1CCCC[C@H]1C(=O)N[C@H](CC(=O)N[C@@H](CCC(=O)O)CC(=O)O)Cc1c[nH]c2ccccc12)NC(=O)C[C@H](Cc1c[nH]c2ccccc12)NC(=O)[C@@H]1CCCC[C@H]1N	-12%
N/C(=N\OC(=O)Oc1ccccc1)c1ccc(Br)cc1	-16%
Cc1cccc(-n2c(N)cc(=O)nc2SCC(=O)Nc2nnc(CC(C)C)s2)c1	-10%
CC1(C)C(=O)C=C[C@@]2(C)C1C=C[C@@]1(C)C2CC[C@@]2(C)C(c3ccoc3)OC(=O)C3OC312 (some centres not stated)	1%
Cn1nnc2c(sc3nc(N4CCOCC4)c4c(c32)CCCC4)c1=O	-10%
CCOC(=O)/C(C#N)=C/c1cn(CCOc2ccc(OC)cc2)c2ccccc12	-18%
O=[N+]([O-])c1ccccc1S(=O)(=O)NCC1CCC(CNCC2CCc3ccccc3C2)CC1 (configuration not stated)	-12%
COC(=O)c1[nH]c2ccc(C)cc2c1NS(=O)(=O)c1ccc(F)c(C)c1	?
CC(=O)Nc1nc(-c2ccc(Br)s2)cs1	-5%
CCOC(=O)N1CCC(NC(=O)C2CCCN(C(=O)N3CCOc4ccccc43)C2)CC1 (configuration not stated)	9%
CCCS(=O)(=O)N1CCC(C(=O)NCCN(C)Cc2ccccc2)CC1	-2%
CCOc1ccc2c(c1)sc(=NC(=O)C1CC1)n2C	?
Cc1cc(NC(=O)CSc2nnnn2C2CCCC2)no1	-5%
CS(=O)(=O)N(CC(=O)Nc1ccc(Cl)c(Cl)c1)C1CCCCC1	-23%
CCC(NS(=O)(=O)c1c(C)[nH]c(=O)[nH]c1=O)C12CC3CC(CC(C3)C1)C2 (configuration not stated)	-6%
CC(=O)Nc1ccccc1-c1nc2ccccc2nc1OCC(=O)c1ccc2ccccc2c1	-1%
O=C(Nc1cccc(Cl)c1)c1cccc(Oc2ccc([N+](=O)[O-])cc2Cl)c1	-4%
CCn1cnc2c1c(=O)n(Cc1nnc3n1-c1ccccc1SC3)c(=O)n2Cc1ccccc1	-9%
O=C(O)CC(NC(=O)COc1ccc(Cl)cc1Cl)C(=O)O (configuration not stated)	-9%
COC(=O)c1ccc(C)c(NS(=O)(=O)c2ccc(OC)c(OC)c2)c1	-2%

A few values from the list:
HPGD block result of O=C1C2C(C(=O)N1c1ccc3c(c1)OCO3)C1C=CC2C12CC2 (configuration not stated) → -1%
HPGD block result of CC(=O)Nc1ccccc1-c1nc2ccccc2nc1OCC(=O)c1ccc2ccccc2c1 → -1%
HPGD block result of NCCC[C@@H](CC(=O)N[C@@H]1CCCC[C@H]1C(=O)N[C@H](CC(=O)N[C@@H](CCC(=O)O)CC(=O)O)Cc1c[nH]c2ccccc12)NC(=O)C[C@H](Cc1c[nH]c2ccccc12)NC(=O)[C@@H]1CCCC[C@H]1N → -12%
HPGD block result of CCOC(=O)/C(C#N)=C/c1cn(CCOc2ccc(OC)cc2)c2ccccc12 → -18%
HPGD block result of CCn1cnc2c1c(=O)n(Cc1nnc3n1-c1ccccc1SC3)c(=O)n2Cc1ccccc1 → -9%

The list goes on.
SMILES	HPGD block
COc1cc(/C=C(\C#N)c2nc3ccccc3[nH]2)ccc1OC(=O)c1ccco1	?
Cc1cccc(C)c1NC(=O)C[N+](C)(C)C	2%&2%
COc1ccc(C(=O)Oc2cccc(Nc3ncnc4ccccc34)c2)cc1OC	-14%
COc1ccc2nc(C)c(C(=O)NN)cc2c1	-29%
CCOC(=O)c1nnn(-c2nonc2N)c1CSc1ccccc1	2%
Cc1ccc(NC(=O)Cn2c(C)cc(C)c(C#N)c2=O)c(Cl)c1	-15%
O=C1NC(c2cccc(Br)c2)=N/C1=C\c1ccco1	?
C=CCSc1nc2c(c(=O)[nH]c(=O)n2C)n1C/C=C(/C)Cl	-25%
CCN(CC)C(=O)C12CC3CC(CC(Cl)(C3)C1)C2	-4%
CCOC(=O)N1CCN(S(=O)(=O)c2ccc(C)c(C)c2C)CC1	-1%
COc1cccc(Nc2nc(-c3cccc(N4C(=O)c5ccccc5C4=O)c3)cs2)c1	-15%
CCNc1nnc(-c2ccccc2OC)s1	?
O=C(NCc1ccco1)c1ccc(COc2ccccc2Cl)cc1	14µM*
O=C(NCc1ccccc1Cl)c1ccc(S(=O)(=O)Nc2cccc(C(F)(F)F)c2)cc1	-7%
Cc1csc(NC(=O)Cc2nn(C)c(=O)c3ccccc23)n1	-8%
CCOC(=O)COn1c(=O)c[n+]([O-])c2ccccc21	-12%
Cc1c(C(=O)NCC2CCCO2)oc2ccc(S(=O)(=O)N3CCCC3)cc12 (configuration not stated)	-1%
Cc1ccsc1C(=O)OCC(=O)NCc1ccc2c(c1)OCO2	13µM*
Cn1c(NCc2cc(Br)ccc2O)nc2ccccc21	?
Cc1cccc2nc(-c3cccc(NC(=O)Cc4ccccc4)c3)cn12	-24%
CCNc1ncc2nc(-c3ccccc3)c(=O)n(CCc3ccccc3)c2n1	?
CCN(CC)C(=O)CSc1nc(N)c(C(=O)Nc2ccc(OC)cc2)s1	-19%
Cc1cc(C)c(C)c(OCCCn2ccnc2)c1	-8%
O=S(=O)(Cc1ccccc1)N1CCN(Cc2ccc3c(c2)OCO3)CC1	0%
COc1ccc(C(c2nnnn2Cc2ccccc2)N2CCN(C(=O)c3ccco3)CC2)cc1OC (configuration not stated)	-5%

In a second layout: entries from further up
> COc1cc(/C=C(\C#N)c2nc3ccccc3[nH]2)ccc1OC(=O)c1ccco1
  HPGD block: ?
> Cc1cccc(C)c1NC(=O)C[N+](C)(C)C
  HPGD block: 2%&2%

4 entries picked at random from those above, as already listed:
SMILES	HPGD block
Cc1ccc(NC(=O)Cn2c(C)cc(C)c(C#N)c2=O)c(Cl)c1	-15%
O=C(Nc1cccc(Cl)c1)c1cccc(Oc2ccc([N+](=O)[O-])cc2Cl)c1	-4%
Cn1c(NCc2cc(Br)ccc2O)nc2ccccc21	?
O=C(O)CCCC(=O)Nc1ccc(Br)cc1	-4%

Next part
SMILES	HPGD block
CCNc1nc(Cl)nc(NCc2ccccc2)n1	-16%
COc1ccc(-c2nc3cnc(N4CCNCC4)nc3n(C)c2=O)cc1	?
CSc1ncccc1C(=O)OCC(=O)NC(N)=O	-21%
NC(=O)CSc1nc(N)c2c3c(sc2n1)CCCCC3	-14%
COCCN(C(=O)c1csnn1)C(C(=O)NC1CCCCC1)c1sccc1C (configuration not stated)	-15%
COC(=O)C1OC(=O)C2OC23[C@]2(C)C(O)CC4C(C)(C)C(OC(C)=O)CC(OC(C)=O)[C@@]4(C)C2CC[C@@]13C (some centres not stated)	-7%&1%
CC1=Nc2ccccc2/C1=C\c1nc(-c2ccccc2)oc1O	-6%
O=C1C(Cl)=C(NCC2CCCO2)C(=O)N1C1CCCCC1 (configuration not stated)	-25%
O=C(c1sc2ccccc2c1Cl)N1CCN(c2ccccc2F)CC1	-11%
CS(=O)(=O)N(Cc1ccccc1Cl)c1ccc(C(=O)NCc2ccccn2)cc1	-1%
O=c1cc(CN2CCOCC2)c2c(ccc3ccccc32)o1	-15%
CC(C)NC(=O)N1CC[C@@]2(CCCN(S(=O)(=O)c3ccccc3)C2)C1	-2%
COc1ccc(N2C3=C(CC4=C2CCCC4=O)C(=O)CCC3)cc1	?
N#Cc1c(-c2ccccc2)ccn(Cc2ccc(Cl)cc2)c1=O	-20%
CCn1nc(C)c(NC(=O)CCCSc2nc(-c3ccco3)cc(C(F)(F)F)n2)c1C	-5%
CC1Cc2ccccc2N1C(=O)C1CCN(S(=O)(=O)c2cccs2)CC1 (configuration not stated)	2%
Cc1ccc2c(c1)NC(C(C)(C)C)CO2 (configuration not stated)	-4%
CCOc1ccc(OCCN2C(=O)NC(Cc3c[nH]c4ccccc34)C2=O)cc1 (configuration not stated)	-11%
O=C(CN(Cc1ccccc1)S(=O)(=O)c1ccccc1)N/N=C/c1ccc([N+](=O)[O-])cc1	-26%
COc1ccc(CN(Cc2cc3cc4c(cc3[nH]c2=O)OCO4)C(=O)NC2CCCCC2)cc1	?
Nc1ccccc1C(=O)N(Cc1ccccc1)Cc1ccccc1	-20%
CCOC(=O)N1CCC(NC(=O)Cn2cc3c(n2)CCCC3)CC1	-2%

High-throughput results (PubChem)

Only part of the results is shown; rates above refer to the full screens.
